PrP 5UTR inh = inhibition of PrP 5' UTR reporter expression. cell-based PrP 5' UTR mRNA reporter, plate reader. inhibition, % (no concentration beside the values). 0.35% of 340,000 active. AID 488862;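 active = every replicate at 50% or more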;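 also: 0 = median of the neutral control wells; tested in H4 reporter cells; numbers are from one replicate; inactives centre near -14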
Bead autofluor = flagged as autofluorescent in microsphere protease counterscreen | compound autofluorescence counterscreen, microsphere flow cytometry; active compounds read high | fluorescence intensity (concentration not given with the values) | 3.1% of 360,000 active | AID 624483;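 active = at least 3 SD above the mean of all compounds, about 16000 in these data; inconclusive = too few beads counted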;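 also: 100 nL of 1 mM stock went into each well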
The depositor's hits bear a star; ? = inconclusive. A portion of the library, so the mix of outcomes need not match the whole.

Values run as follows: PrP 5UTR inh, Bead autofluor
- COc1ccc([C@@]23Oc4cc(OC)cc(OC)c4[C@]2(O)[C@H](O)[C@H](C(=O)N(C)C)[C@H]3c2ccccc2)cc1
 : 78.5*, 4041
- CCCCN1CC(COCc2ccccc2)Oc2cccc(Oc3ccc(OC)cc3)c2S1(=O)=O (centres undefined)
 : 14.2, 3036
- COc1ccc(C(O)(c2ccccc2)c2ccncc2)cc1 (centres undefined)
 : -9.8, 3539
- COc1cccc(/C=C/c2ccc3ccccc3n2)c1OC(C)=O
 : 50.6, 3363
- CCCCN1CC(COCc2ccccc2)Oc2cccc(Oc3cc(C)c(C)c(C)c3)c2S1(=O)=O (centres undefined)
 : -2.0, 3186
- CC(=O)Nc1ccc(S(=O)(=O)NCC2CC3CCC2C3)cc1 (centres undefined)
 : 3.8, 2993
- CCN(Cc1ccccc1)c1ccc(/C=N/N2CCOCC2)cc1
 : -16.1, 4413
- CON(C)C(=O)C[C@@H]1C[C@H](OC(=O)c2ccc([N+](=O)[O-])cc2)CN1C(=O)OC(C)(C)C
 : -17.5, 3495
- O=C(NC[C@@H]1CCCO1)c1cccc2c1C(=O)c1ccc(Cl)cc1S2(=O)=O
 : -30.4, 4250
- CN(C)S(=O)(=O)n1cnc([C@@H]2[C@H]3C(=O)OC[C@@H]3C[C@@]23N=CN(Cc2ccccc2)C3=O)c1
 : -19.0, 3377

Next entries follow:
Values run as follows: PrP 5UTR inh, Bead autofluor
- CCOC(=O)C1(C(=O)OCC)COC(=O)C2(CC)OC21 (centres undefined)
 : -13.8, 2772
- Cc1c(NC(=O)CN(C)CC(=O)Nc2ccc(F)c(F)c2F)c(=O)n(-c2ccccc2)n1C
 : -24.7, 3570
- CC(C)CCCCCCCCCCCCC(=O)NCC(=O)NC1C(C)OC(Nc2ncnc3nc[nH]c23)C(O)C1O (centres undefined)
 : 75.3*, 2946
- N#Cc1c(-c2ccc(F)cc2)c(-c2ccc(F)cc2)nn(CCO)c1=O
 : -14.0, 3510
- Cc1ccc(C2=CC(=O)C[C@H](c3ccc(Cl)cc3)C2)cc1
 : -8.1, 3054
- COc1c(O[C@@H]2O[C@H](CO)[C@@H](O)[C@H](O)[C@H]2O)cc2c(c1OC)-c1ccc(SC)c(=O)cc1C(NC(C)=O)CC2 (some centres undefined)
 : -18.2, 4441
- COc1ccccc1-c1cccc([C@@H]2C[C@H]3[C@H](CON3C)CN2Cc2cc(Cl)cc(Cl)c2)c1
 : 14.6, 3019
- CS(=O)(=O)c1ccc([C@@H](O)[C@@H](CF)NC(=O)C(Cl)Cl)cc1
 : 9.0, 4380
- COc1ccc(OC)c(NC(=O)CSc2ncnc3sc(C)cc23)c1
 : -0.7, 3748
- COC(=O)[C@@H](NCc1ccc(B(O)O)cc1)C(C)C
 : -27.0, 3802

Next section.
Values run as follows: PrP 5UTR inh, Bead autofluor
- CC(C)(C)OC(=O)N1CCC(C(=O)Nc2ccc(C(=O)NC3CC3)cc2)CC1
 : -12.3, 3978
- CCOc1cc(/C=N/NC(=O)C2CC2)ccc1OC(C)C
 : -16.5, 6353
- Cc1ccc(CN2CC(=O)N3[C@H]4c5cc(C)ccc5OC[C@@H]4[C@H](c4ccccc4)[C@]3(C)C2=O)cc1
 : -8.3, 4431
- C[C@H](O)[C@@H]1C(=O)N2CCc3ccc(-c4ccccc4)cc3[C@@H]2C[C@@H]1N(C)C(=O)Nc1cc(Cl)cc(Cl)c1
 : -11.8, 3635
- CC(=O)c1cccc(-c2ccc(CN3C(CC(C)C)C(=O)N(Cc4cn(CC5CCCCC5)nn4)CCS3(=O)=O)cc2)c1 (centres undefined)
 : -4.2, 2893
- NC(=O)c1ncn([C@@H]2O[C@H](CN=C3NS(=O)(=O)c4ccccc43)[C@@H](O)[C@H]2O)n1
 : -12.1, 3324
- C/C=C/c1ccc2c(c1)OCO2
 : -19.3, 5761
- NS(=O)(=O)c1ccc(NNC(=O)c2ccc(Br)o2)c([N+](=O)[O-])c1
 : -34.4, 3047
- COc1ccc(C2(OC)Oc3cc(OC)ccc3C(=O)C2(O)OC)cc1 (centres undefined)
 : 15.5, 2863
- Nc1[nH]c(=O)[nH]c(=O)c1N=Cc1ccccc1
 : -9.8, 2993

Pulled by structure from the entries so far (two):
Values run as follows: PrP 5UTR inh, Bead autofluor
- COc1ccc(C2(OC)Oc3cc(OC)ccc3C(=O)C2(O)OC)cc1 (centres undefined)
 : 15.5, 2863
- C[C@H](O)[C@@H]1C(=O)N2CCc3ccc(-c4ccccc4)cc3[C@@H]2C[C@@H]1N(C)C(=O)Nc1cc(Cl)cc(Cl)c1
 : -11.8, 3635

Other entries follow.
Values run as follows: PrP 5UTR inh, Bead autofluor
- Oc1ccc(C=NNC(=S)Nc2cccnc2)nc1
 : -23.4, 3485
- C=CC[C@H](CC(=O)N[C@H](CO)Cc1ccccc1)C(=O)N[C@@H](COC(=O)[C@H](CC=C)CC(=O)OC(C)(C)C)Cc1c[nH]c2ccccc12
 : -4.5, 3350
- CC=Cc1cc2c(c(=O)o1)C(=O)C(O)C(C)O2 (centres undefined)
 : 51.6, 3747
- COC(=O)C1=C(c2ccc(OC)c(OC)c2)C[C@@H]2CC[C@H]1N2C(=O)N1CCCC1
 : -23.9, 4129
- O=C(C[C@H]1C/C=C\C[C@H](NC(=O)OCC2c3ccccc3-c3ccccc32)C(=O)OC[C@@H]2CCCN2C1=O)NCCO
 : -23.5, 4195
- O=C1NC(=S)NC1=Cc1ccc2c(c1)CCC2
 : -8.2, 3736
- Cc1ccc(CN2CC(=O)N3[C@H]4c5cc(Cl)ccc5OC[C@@H]4[C@H](c4ccccc4)[C@]3(C)C2=O)cc1
 : -7.4, 3135
- Cc1cc(C)nc(SCC(=O)NCc2ccco2)n1
 : -3.3, 5449
- Cc1ccc(S(=O)(=O)N2[C@@H](c3ccccc3F)C(C(=O)O)=CC[C@H]2c2ccc(C(C)C)cc2)cc1
 : -4.0, 3439
- CCC1=C2CC[C@H]3C(=O)NC(=O)[C@H]3[C@H]2[C@@]2(Cc3ccccc3)C(=NCC(=O)OC)OC(=O)N2C1=O
 : 1.1, 3670

Next structures:
Values run as follows: PrP 5UTR inh, Bead autofluor
- CCCCN1C(=N)N([C@@H](CCC)CN2CCC[C@H]2CN2C(N)=NC[C@@H]2Cc2ccccc2)C[C@H]1[C@H](C)CC
 : -3.0, 3432
- COC(=O)C1=C(c2cccc(C#N)c2)C[C@@H]2CC[C@H]1N2C(=O)N1CCOCC1
 : -4.9, 3922
- O=C1NC[C@H](Cc2ccccc2)N(CC2CCN(CCC3CCCC3)CC2)C1=O
 : -1.6, 2819
- COC(=O)[C@@]12CCCN1[C@H](c1ccc(-c3ccc4c(c3)OCO4)cc1)[C@H]1C(=O)N(C)C(=O)[C@H]12
 : -12.2, 4003
- CCN1C[C@]2(COC)CC[C@H](O)[C@]34C1[C@](O)([C@@H](OC)[C@H]23)[C@@]1(O)C[C@H](OC)[C@H]2C[C@@H]4[C@@H]1[C@H]2OC
 : -4.9, 5359
- C[C@@H]1C(c2cccc(Cl)c2)=NN(c2ccc(Br)cc2)[C@H]1C(=O)N1CCOC1=O
 : -16.0, 3637
- O=C(CSc1nnnn1C1CC2CCC1C2)Nc1ccnc2ccccc12 (centres undefined)
 : -21.0, 4628
- COC(=O)[C@@H](Cc1c[nH]c2ccccc12)NCc1ccc(B(O)O)cc1
 : -9.5, 3620
- C[C@@H]1CN([C@H](C)CO)C(=O)Cc2cc(NC(=O)Nc3ccccc3)ccc2O[C@@H]1CN(C)C(=O)Nc1ccc2c(c1)OCO2
 : -8.3, 2931
- COc1ccc(/C=N/NC(=O)c2ccc(OC)c(OC)c2)cc1COc1c(F)c(F)c(F)c(F)c1F
 : -13.2, 5634

Following part
Values run as follows: PrP 5UTR inh, Bead autofluor
- CCOC(=O)[C@@H]1[C@H]2COc3ccccc3[C@@H]2N2C(=O)N(c3ccc(C(F)(F)F)cc3)C(=O)[C@@]12C
 : -14.2, 3962
- CC[C@H](C)[C@@H](C(=O)NCCCCCCCCCCC(=O)N1CCNCC1)n1cc(CCCCCN)nn1
 : -21.2, 4179
- Oc1c(Br)cc(Br)cc1/C=N/N1CCN(Cc2ccccc2)CC1
 : -18.4, 2464
- COc1ccc(-c2nc3c(C(=O)NCCN(C)C)cccc3c3ccccc23)cc1
 : -20.0, 3414
- COc1ccc([C@@H]2[C@@H]3C(=O)N(C(C)(C)C)C(=O)[C@@H]3[C@]3(Cc4ccc(Cl)cc4)C(=O)N(c4cccc(F)c4)C(=O)N23)cc1
 : -21.1, 4047
- COC(=O)[C@@H](NCc1ccc(OC)c(B(O)O)c1)C(C)C
 : -13.1, 3230
- CCOC(=O)[C@H]1[C@H]2COc3ccc(C)cc3[C@@H]2N2C(=O)c3ccccc3NC(=O)[C@@]12C
 : -26.3, 3663
- CCCCC(=O)OCC(=O)C1(O)Cc2c(O)c3c(c(O)c2C(OC2CC(NC(=O)C(F)(F)F)C(O)C(C)O2)C1)C(=O)c1c(OC)cccc1C3=O (centres undefined)
 : -40.2, 3651
- CC(C)(C)c1ccc(/C=C/C(=O)c2ccc(NC3=NCCCS3)cc2)cc1
 : -27.2, 2484
- CCOC(=O)[C@H]1[C@H]2COc3cc(OC)ccc3[C@@H]2N2C(=O)c3ccc(C)cc3NC(=O)[C@@]12C
 : -14.3, 3874

The list goes on:
Values run as follows: PrP 5UTR inh, Bead autofluor
- C#CCOCCOCCOCCNc1nc(N2CCN(C(=O)C([C@@H](C)O)n3cc([C@@H](N)CCCCN)nn3)CC2)nc(N2CCN(C(=O)C([C@@H](C)O)n3cc([C@@H](N)CCCCN)nn3)CC2)n1 (some centres undefined)
 : -13.8, 3463
- N#C/C(=C\c1ccc(O)c(O)c1)C(=O)c1ccc(O)c(O)c1
 : -16.4, 6003
- CN1OC[C@@H]2CN(Cc3cc(Cl)cc(Cl)c3)[C@H](c3cccc(-c4ccccc4)c3)C[C@@H]21
 : -19.3, 3648
- C[C@@H](NC(=O)c1nc[nH]c1C(=O)OCc1ccccc1)c1ccccc1
 : 11.0, 4070
- O=S1(=O)c2ccc(Br)cc2N2CC[C@H](C2)N1Cc1ccc(Cl)cc1
 : -18.4, 3715
- N/C(=N/O)c1nc(N2CCCC2)nc(N2CCCC2)n1
 : -1.5, ?
- COC1C(O)C(C)OC(OC2CCC3(C=O)C(CCC4C3CCC3(C)C(C5=CC(=O)OC5)CCC43O)C2)C1O (centres undefined)
 : 89.8*, 4199
- CCN1C[C@@H]2[C@@H]3C(=O)N(Cc4ccccc4)C(=O)[C@@H]3[C@](C)(C1=O)N2C(=O)c1ccc(C(C)(C)C)cc1
 : -6.1, 3588
- OCC[C@H]1C[C@@H](O)[C@H](O)[C@]2(Cc3ccccc3O2)O1
 : -12.6, 3996
- COC(=O)CC#N
 : -13.5, 5738

(further entries)
Values run as follows: PrP 5UTR inh, Bead autofluor
- Nc1ccc(-c2nnn(Cc3ccccc3)n2)cc1
 : -31.7, 3984
- CC(C)(C)[C@H]1COC(=O)[C@@H](Cc2ccc(F)cc2)CC/C=C/C[C@@H](CC(=O)N[C@H](CO)Cc2ccccc2)C(=O)N1
 : -17.0, 3818
- CC(=O)C1(C)C(=O)N(c2ccc(C)cc2)C(=O)N1c1ccc(C)cc1 (centres undefined)
 : -16.0, 3366
- COC(=O)C1=C(c2ccc(F)cc2OCc2ccccc2)C[C@@H]2CC[C@H]1N2C(=O)NCc1ccccc1C(F)(F)F
 : -14.2, 4168
- Brc1ccc(C2Nc3cccc4cccc(c34)N2)cc1
 : -24.4, 3498
- C[C@H]1CN([C@@H](C)CO)C(=O)c2cccc(NC(=O)c3cnccn3)c2O[C@@H]1CN(C)C(=O)Nc1ccc2c(c1)OCO2
 : -2.3, 3751
- C[C@H](NC(=O)c1nc[nH]c1C(=O)N1CCc2ccccc2C1)c1ccccc1
 : -14.4, 4494
- COc1ccc(NC(=O)N(C)C[C@H]2Oc3ccc(NC(=O)NC4CCCCC4)cc3C(=O)N([C@H](C)CO)C[C@@H]2C)cc1
 : -0.9, 3056
- CC(C)(C)OC(=O)C[C@@H]1C/C=C\C[C@H](CC(=O)NCCO)C(=O)N[C@H](Cc2ccccc2)COC1=O
 : -19.4, 4278
- C=CC[C@@H](CC(=O)N(CCO)Cc1ccccc1)C(=O)NCCOC(=O)[C@H](CC=C)CC(=O)OC(C)(C)C
 : -5.3, 3906
- COC(=O)C1=C(c2ccc(OC(F)(F)F)cc2)C[C@@H]2CC[C@H]1N2C(=O)NC1Cc2ccccc2C1
 : -20.3, 4247
- C#CCN1C=CC(=O)[C@@H](OC(=O)NCCC)[C@H]1c1ccccc1Br
 : -13.6, 3595

Structures shown so far with a Cl atom (10):
Values run as follows: PrP 5UTR inh, Bead autofluor
- O=C(NC[C@@H]1CCCO1)c1cccc2c1C(=O)c1ccc(Cl)cc1S2(=O)=O
 : -30.4, 4250
- Cc1ccc(C2=CC(=O)C[C@H](c3ccc(Cl)cc3)C2)cc1
 : -8.1, 3054
- COc1ccccc1-c1cccc([C@@H]2C[C@H]3[C@H](CON3C)CN2Cc2cc(Cl)cc(Cl)c2)c1
 : 14.6, 3019
- CS(=O)(=O)c1ccc([C@@H](O)[C@@H](CF)NC(=O)C(Cl)Cl)cc1
 : 9.0, 4380
- C[C@H](O)[C@@H]1C(=O)N2CCc3ccc(-c4ccccc4)cc3[C@@H]2C[C@@H]1N(C)C(=O)Nc1cc(Cl)cc(Cl)c1
 : -11.8, 3635
- Cc1ccc(CN2CC(=O)N3[C@H]4c5cc(Cl)ccc5OC[C@@H]4[C@H](c4ccccc4)[C@]3(C)C2=O)cc1
 : -7.4, 3135
- C[C@@H]1C(c2cccc(Cl)c2)=NN(c2ccc(Br)cc2)[C@H]1C(=O)N1CCOC1=O
 : -16.0, 3637
- COc1ccc([C@@H]2[C@@H]3C(=O)N(C(C)(C)C)C(=O)[C@@H]3[C@]3(Cc4ccc(Cl)cc4)C(=O)N(c4cccc(F)c4)C(=O)N23)cc1
 : -21.1, 4047
- CN1OC[C@@H]2CN(Cc3cc(Cl)cc(Cl)c3)[C@H](c3cccc(-c4ccccc4)c3)C[C@@H]21
 : -19.3, 3648
- O=S1(=O)c2ccc(Br)cc2N2CC[C@H](C2)N1Cc1ccc(Cl)cc1
 : -18.4, 3715

Source: PubChem BioAssay
